# Screening results: PubChem, National Center for Advancing Translational Sciences (NCATS)
# ClpP mod – qHTS Assay for Activators of ClpP; ATP-dependent Clp protease proteolytic subunit (Bacillus subtilis (strain 168)), P80244; 1.9% of 340,000 active; Potency, µM (doses to about 57.5 µM), for inactives: at the highest dose activity change, negative = active; purified B. subtilis ClpP, FRET peptide cleavage, 20 min; AID 651965, 2013; active = well fitted falling curve with a large enough effect; inconclusive = small, poorly fitted or top-dose-only effect; inactive = no such curve, though single readings can be large or run the other way; also: potency is read from the fitted curve at half-maximal effect; the source files actives as falling curves though it sought activators and does not explain the sign; nearly all actives have a fitted effect of over 65% in size; many hits overshoot -100%
# Target sequence (P80244 whole entry, looked up): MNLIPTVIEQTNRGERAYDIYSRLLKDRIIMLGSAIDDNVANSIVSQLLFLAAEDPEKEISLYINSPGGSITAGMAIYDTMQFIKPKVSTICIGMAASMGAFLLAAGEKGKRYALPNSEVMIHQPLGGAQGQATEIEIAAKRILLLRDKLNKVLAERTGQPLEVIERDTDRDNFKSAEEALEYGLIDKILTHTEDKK
#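 Buffer: 100 mM Tris/HCl pH8, 100 mM KCl, 0.05% low protease BSA, 2.5% glycerol, 0.01% Tween-20. ClpP 10 microg/mL final; 20 min RT; delta FRET normalized to ADEP and DMSO controls.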
# Sfp PPTase inh – qHTS Assay for Inhibitors of Bacillus subtilis Sfp phosphopantetheinyl transferase (PPTase); 4'-phosphopantetheinyl transferase ffp (Bacillus subtilis), Q9F4F7; Biochemical Sfp PPTase activity, qHTS; Potency, µM, without a hit: max response, negative = inhibition, actives largely listed as inhibitors; 3.5% of 310,000 active; active = well fitted inhibition curve with a large enough effect; inconclusive = small, poorly fitted or top-dose-only effect, or another doubt; inactive = no such curve, though single readings can be large or run the other way;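 also: the enzyme is Sfp with the accession as filed and its product quenches rhodamine fluorescence; potency is read from the fitted curve at half-maximal effect; 0% = enzyme reaction without inhibitor and -100% = no enzyme wells; top concentration of the series not given in the record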
#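 Reaction rates are the 30-min fluorescence difference (ex 525, em 598 nm) in wells containing 15 nM Sfp, 5 uM rhodamine-CoA and 12.5 uM BHQ-2-YbbR at pH 7.6 with 10 mM MgCl2.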
# gsp agonist – qHTS for Agonist of gsp, the Etiologic Mutation Responsible for Fibrous Dysplasia/McCune-Albright Syndrome: qHTS; gsp mutant cells, cAMP HTRF, 30 min; control for the full effect not named in the record; Potency, µM (series often up to 76.9 µM), for inactives: at the highest dose activation (cAMP increase), usual class: activators; 0.13% of 340,000 active; AID 624287, 2012; active = well fitted activation curve with a large enough effect; inconclusive = small, poorly fitted or top-dose-only effect, or another doubt; inactive = no such curve, though single readings can be large or run the other way; cell line not stated here;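 also: phosphodiesterase inhibitor Ro 20-1724 added with compounds to block cAMP breakdown; potency is read from the fitted curve at half-maximal effect; nearly all actives have a fitted effect of over 60% in size; about a fifth of the inactives were tested at one dose only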
#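 Cells stably selected in G418 were plated at 2000/well, grown 16-24 hr, then given compounds in DMSO with the PDE inhibitor […] (300 uM solution added) for 30 min at 37C; cAMP was read by HTRF.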
# D2 PAM – Beta-Arrestin HTS for Positive Allosteric Modulators of the Human D2 Dopamine Receptor: Potentiators; 0.23% of 360,000 active; DiscoveRx D2 beta-arrestin cells, luminescence, 90 min; 100% = 57 uM dopamine signal; potentiation, % (concentration not given with the values); AID 624464, 2012; active = potentiation of 50% or more; inconclusive = 30% to 50%; inactive = 30% or less;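 also: compound concentration not given in the record; tested on top of an EC20 dose of dopamine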
# Target sequence (P14416 whole entry, looked up): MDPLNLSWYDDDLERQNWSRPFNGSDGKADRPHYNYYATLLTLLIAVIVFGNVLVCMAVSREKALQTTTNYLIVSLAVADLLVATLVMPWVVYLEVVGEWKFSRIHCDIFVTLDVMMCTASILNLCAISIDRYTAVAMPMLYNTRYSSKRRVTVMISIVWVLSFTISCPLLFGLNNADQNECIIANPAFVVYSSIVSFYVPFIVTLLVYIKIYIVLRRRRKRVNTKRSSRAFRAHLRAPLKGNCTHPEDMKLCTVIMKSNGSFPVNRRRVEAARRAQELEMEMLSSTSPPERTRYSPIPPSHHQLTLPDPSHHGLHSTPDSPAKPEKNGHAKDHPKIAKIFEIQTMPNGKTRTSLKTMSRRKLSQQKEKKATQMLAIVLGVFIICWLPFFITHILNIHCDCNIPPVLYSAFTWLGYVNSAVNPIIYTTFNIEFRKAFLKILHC
#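 PathHunter D2 cells, attached overnight at 37 deg C, received compound in DMSO plus dopamine at EC20 (50 nM final) for 90 min at 37 deg C. Beta-arrestin recruitment was read as luminescence after 1 h with detection reagent at ambient temperature.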
# TRPV1 potentiator – HTS Assay for Compounds that Act as Potentiators of the Vanilloid Receptor 1 | Transient receptor potential cation channel subfamily V member 1 (Homo sapiens), Q8NER1 | TRPV1-expressing cells, Fluo-8 calcium influx, capsaicin EC20 potentiation; host cell line not named in the record; control for the full effect not named in the record | potentiation, % at 8.33 µM | 0.02% of 320,000 active | AID 540277, 2011; active means potentiation above 80%; inconclusive means 30% to 80%; inactive means below 30%; also: 0% is about no effect
#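 Cells expressing TRPV1 were dye-loaded with Fluo-8 and read kinetically: 10 s baseline, 3 min after compound (agonist portion), then 2 min after EC20 capsaicin (allosteric enhancer portion). Calcium-bound dye fluorescence at 480/520 nm.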
# gsp antag – qHTS for Antagonists of gsp, the Etiologic Mutation Responsible for Fibrous Dysplasia/McCune-Albright Syndrome: qHTS; Potency, µM (titrated, usually from 76.9 µM), for inactives: at the top dose activity change, negative = inhibition, actives largely listed as inhibitors; gsp-mutant cells, cAMP HTRF, 30 min; control for the full effect not named in the record; 0.4% of 340,000 active; AID 624288, 2012; active = falling curve of any shape with a large fitted effect; inconclusive = falling curve, mostly with a smaller effect; inactive = flat or rising curve; cell line not stated here;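 also: intracellular cAMP measured with PDE inhibitor Ro 20-1724 present during compound exposure; potency is read from the fitted curve at half-maximal effect; % is scaled to controls: 0 for no effect and ±100 for the full control effect; nearly all actives have a fitted effect of over 65% in size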
#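 Measurement of cellular cAMP by homogeneous time-resolved fluorescence following a 30 min compound exposure at 37C. The PDE inhibitor […] was present throughout; the assay buffer was DPBS with 0.05% BSA and 0.005% Tween 20.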
# Menin-MLL FL inh – qHTS Assay for Inhibitors Targeting the Menin-MLL Interaction in MLL Related Leukemias: Competition With Fluorescein Labeled MLL-derived Peptide | Fluorescence polarization, fluorescein-MLL peptide displacement from menin | FP activity change, % at 61.4 µM | 290,000 tested, under 10 active | AID 1766, 2009; inconclusive = falling polarisation curve, or a change in total fluorescence; inactive = total fluorescence flat and polarisation flat or rising; no compound was filed as active; the % refers to the polarisation; negative = inhibition;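 also: % of control where 0% means no effect; inhibitors lower the polarisation; unlabelled MLL peptide was the positive control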
# * = called active by the depositor; ? = inconclusive; . = not tested or not shown; & = joins results of further samples; [ ] = remark or other dose.
structure	ClpP mod	Sfp PPTase inh	gsp agonist	D2 PAM	TRPV1 potentiator	gsp antag	Menin-MLL FL inh
Cc1ccc(S(=O)(=O)N(C)C)cc1NC(=O)COC(=O)/C(=C/c1ccc(F)cc1)c1cccs1	-0.2%	14%	-2%[15.4 µM]	-7	-4	-31%	5.5
COc1ccc(CC(=O)NNC2=Nc3cccc4cccc2c34)cc1	.	24%	-3%[15.4 µM]	-20	15	8%	6.5
CS(=O)(=O)N(CCc1ccccc1)CC(=O)N1CCN(c2ccc(F)cc2)CC1	-0.6%	-5%	-39%[inhibitor]	-10	13	-24%	1.7
CCCCSc1nc(C)c(CC(=O)OC)c(=O)[nH]1	-0.2%	2%	-30%	-19	15	2%	2.9
Clc1ccc(-c2cn3nc4c(nc3n2)CCCC4)cc1	-7.8%	?	3%	-11	-8	0%	?
COc1ccccc1NS(=O)(=O)c1cccc(C(=O)N(C)Cc2cccs2)c1	1.5%	-1%	-1%[15.4 µM]	18	-5	?	.
CCCCC(=O)Nc1ccc(C(=O)Nc2ccc(S(=O)(=O)Nc3ccc(C)cc3)cc2)cc1	-1.9%	14%	11%[15.4 µM]	-10	-4	1%	0.8
CCN(C(=O)c1c(-c2ccccc2Cl)noc1C)C1CCCCC1	.	12%	-2%[15.4 µM]	-9	-19	-4%	-0.4
Cc1ccc(-c2ccc(=O)n(Cc3cc(C)ccc3C)n2)cc1	-8.0%	-11%	-5%	-2	-13	?	-1.4
CCOC(=O)C1(Cc2cccc(F)c2)CCN(C2CCOCC2)CC1	.	-2%	-16%[15.4 µM]	-14	-3	11%	-3.0
O=C(COC(=O)c1ccccc1SCC(=O)N1CCCC1)Nc1ccc(OC(F)F)cc1	-2.7%	.	3%	-19	0	-9%	.
CCOC(=O)c1ccccc1NC(=O)C1CCCO1 (stereo unspecified)	-22%	13%	9%	2	-1	1%	-2.0
CCN1CCN(CCC(=O)Nc2ccccc2)CC1	.	-15%	-1%	-10	10	11%	-5.3
CN(C(=O)c1ccc(NC(=O)Cc2cccc(NC(=O)C3CCCN(C(=O)C4CC4)C3)c2)cc1)C1CCCC1 (stereo unspecified)	-0.7%	.	.	8	20	9%	.
CCCCOCCCNCC(=O)Nc1ccc(S(N)(=O)=O)cc1	.	18%	20%[15.4 µM]	-3	-18	.	-1.4
Cc1ccc(C)c(C(=O)OCC(=O)N(C)c2ccccc2)c1	.	2%	-4%[15.4 µM]	-7	-32	3%	-12
O=C(C1CCN(Cc2cc(Cl)ccc2O)CC1)N1CCN(Cc2ccccc2)CC1	-5.8%	-19%	-37%	-29	-1	-1%	0.4
CCCCc1nc2cc(C(=O)N3CCC(OC)CC3)ccc2o1	0.2%	10%	?	-5	4	10%	.
CNc1c(NS(=O)(=O)c2ccc3c(c2)CCCC3)c(=O)oc2ccccc12	.	2%	-27%	1	-1	6%	1.8
O=C1COc2ccc(C(=O)COC(=O)Cc3ccccc3F)cc2N1	0.6%	17%	-10%[15.4 µM]	-6	-9	3%	-2.2
Cc1ccc2oc(=O)cc(CN3CCC(C)CC3)c2c1	-4.4%	8%	?	-6	-29	1%	6.8
C[N+]1(C2CCC3CCC2C3O)CCCC1 (stereo unspecified)	-2.9%	6%	9%	1	6	-9%	4.6
O=C(CSc1nc2ccccc2n1CCc1ccccc1)N1CCOCC1	0.3%	5%	6%	-2	-8	6%	1.8
Cn1nc(-c2ccccc2)c(C(=O)NC(C(=O)O)c2ccccc2)c1Cl (stereo unspecified)	.	1%	-17%	-2	13	0%	2.3
Cc1ccc(NC(=S)NCCN2CCOCC2)cc1	2.5%	2%	-23%	2	1	6%	2.7
Cc1ccc(NC(=O)CCc2c(C)nc3ncnn3c2C)cc1	-5.6%	15%	?	-3	-4	-4%	4.6
CCc1cc2c(=O)[nH]cnc2s1	-5.7%	21%	1%	3	.	-10%	1.4
CCCn1c(=NC(=O)c2ccco2)c(C(=O)OCC)cc2c(=O)n3ccccc3nc21	18µM*	?	?	4	-9	-5%	0.0
Nc1nc2n(n1)C(=O)CC(c1ccccc1[N+](=O)[O-])N2 (stereo unspecified)	-14%	5%	-12%	-3	-2	1%	-3.9
C=CCNC(=O)C12CCC(C)(C(=O)C1Br)C2(C)C (stereo unspecified)	-0.9%	4%	?	-10	-1	7%	4.4
Cc1cc(C)n(CC(=O)N/N=C/c2ccco2)n1	-0.2%	25%	20%	2	3	-1%	6.2
O=C(C1=C(O)C(=O)N(Cc2cccnc2)C1c1ccccn1)c1cccs1 (stereo unspecified)	.	-16%	3%	-1	?	10%	2.1
O=S(=O)(Cc1cc(Oc2ccccc2)nc(-c2ccccc2)n1)c1ccccc1	-0.9%	11%	-14%	-16	-16	-10%	1.5
O=C(Nc1ccc2oc(-c3ccncc3)nc2c1)c1ccccc1	-0.5%	13%	-18%[15.4 µM]	15	19	-11%	-0.9
CCCCNC(=O)C1C2C=CC3(CN(Cc4ccccc4Cl)C(=O)C13)O2 (stereo unspecified)	0.5%	14%	?	-4	5	3%	2.3
O=C(N/N=C/c1cc([N+](=O)[O-])ccc1O)c1cccc(N2CCCC2=O)c1	1.6%	11%	-7%	-15	1	?	7.4
COc1ccc(C)cc1S(=O)(=O)N1CCN(C(=O)c2ncoc2-c2cccc(F)c2)CC1	.	8%	-7%[15.4 µM]	9	-1	.	-0.7
CC(C)CCNC(=O)c1ccc(Cn2c(=S)[nH]c3ccccc3c2=O)cc1	.	14%	-38%[inhibitor]	-2	2	0%	1.0
O=c1cc(-c2ccccc2Cl)c2c([nH]1)CCC2	?	-15%	-7%	-2	0	9%	2.2
CC1(C)S[C@@H]2[C@H](NC(=O)Cc3ccccc3)C(=O)N2[C@H]1C(=O)O	-4.7%&-2.7%	-10%&9%&-7%&22%	?	-12&1	4&-11	17%&13%	4.6
CCOC(=O)c1c(/N=C/N(C)C)sc(/C=N/Nc2ccccc2)c1-c1ccccc1	-8.6%	2%	4%	-2	17	-3%	14
O=C(CCS(=O)(=O)c1ccc(Br)cc1)NCCc1ccccc1	1.4%	16%	-27%	-14	1	-2%	8.8
Oc1ccc(Nc2nc(-c3cccnc3)cs2)cc1	-3.9%	-16%	-1%[15.4 µM]	-3	2	-26%	0.1
COc1cccc(-c2csc(NC(=O)C3CC3)n2)c1	0.4%	15%	?	-6	-6	?	-1.6
CNC(=O)N(O)C1N(c2ccccc2)C(=S)SC1(C)C (stereo unspecified)	-4.3%	24%	9%[15.4 µM]	-20	-2	13%	0.4
COc1ccc(OC)c(CC(NC(C)=O)C(=O)NC2CCN(c3c(Cc4ccccc4)c(C)nc4ncnn34)CC2)c1 (stereo unspecified)	0.2%	9%	0%[15.4 µM]	4	4	-8%	0.3
COc1ccccc1NC(=O)c1ccc(NC(=O)CSc2nncn2C)cc1	-2.0%	7%	-108%[inhibitor]	-2	-7	0%	2.3
Cc1c(N=Cc2nc3ccccc3n2C)c(=O)n(-c2ccccc2)n1C	-3.6%	3%	17%	-25	.	6%	-3.4
CN(C)c1ccc(/C=C2\CCCCC2=O)cc1	-1.2%&-1.0%	0%	-36%[inhibitor]	-3	-9	6%	13
CCN(CC)c1ccc(/C=N/Nc2nc(C)cc(C)n2)c(O)c1	0.5%	-15%	-1%	-33	16	-19%	24

# 5 compounds already listed, ordered by their value in gsp antag, falling:
molecule | gsp antag
Cc1ccc(C)c(C(=O)OCC(=O)N(C)c2ccccc2)c1 | 3%
Cn1nc(-c2ccccc2)c(C(=O)NC(C(=O)O)c2ccccc2)c1Cl (stereo unspecified) | 0%
O=C(C1CCN(Cc2cc(Cl)ccc2O)CC1)N1CCN(Cc2ccccc2)CC1 | -1%
CCOC(=O)c1c(/N=C/N(C)C)sc(/C=N/Nc2ccccc2)c1-c1ccccc1 | -3%
COc1ccc(OC)c(CC(NC(C)=O)C(=O)NC2CCN(c3c(Cc4ccccc4)c(C)nc4ncnn34)CC2)c1 (stereo unspecified) | -8%

# Copied from the results shown for reference:
structure	ClpP mod	Sfp PPTase inh	gsp agonist	D2 PAM	TRPV1 potentiator	gsp antag	Menin-MLL FL inh
Cc1ccc(NC(=O)CCc2c(C)nc3ncnn3c2C)cc1	-5.6%	15%	?	-3	-4	-4%	4.6
CCc1cc2c(=O)[nH]cnc2s1	-5.7%	21%	1%	3	.	-10%	1.4

# The results go on.
structure	ClpP mod	Sfp PPTase inh	gsp agonist	D2 PAM	TRPV1 potentiator	gsp antag	Menin-MLL FL inh
CC[C@H](C)[C@H](NC(=O)OCc1ccccc1)C(=O)OCC(=O)N1CCN(c2ccc(F)cc2)CC1	0.8%	.	12%	-10	.	-22%	.
COc1ccccc1C(=O)NCC(=O)N1CCN(S(=O)(=O)c2ccc3c(c2)OCCO3)CC1	.	.	-10%[15.4 µM]	3	-18	-8%	.
O=C(N/N=C/c1ccc[nH]1)c1ccc2c(c1)OCO2	.	5%	-3%[15.4 µM]	-3	-16	16%	0.6
COc1ccc(CNC(=O)C2C3C=CC4(CN(Cc5cccnc5)C(=O)C24)O3)cc1 (stereo unspecified)	0.0%	12%	-19%	-4	-12	-4%	6.0
CP(=O)(Nc1cc(Cl)ccc1Cl)c1nc2c(s1)CCCC2 (stereo unspecified)	-0.1%	25%	15%	-9	-8	-6%	-0.8
CC(C)N(C(=O)[C@H]1C[C@H](CC(=O)NCCN2CCOCC2)C(=O)N2CCc3c([nH]c4ccc(Cl)cc34)[C@]12C)C(C)C	1.0%	.	.	-8	.	-3%	.
